From PubChem BioAssay
GCN5L2 inh: GCN5L2 (KAT2A) acetyltransferase inhibition; actives 0.21% (n = 390,000); Q92830; AID 504327; GCN5L2 HAT assay, ThioGlo1 CoA-SH fluorescence; Potency, µM (doses to about 58.9 µM), inactives show at the highest dose activity change, negative = inhibition, usual class: inhibitors
Target sequence (Q92830 whole entry, looked up): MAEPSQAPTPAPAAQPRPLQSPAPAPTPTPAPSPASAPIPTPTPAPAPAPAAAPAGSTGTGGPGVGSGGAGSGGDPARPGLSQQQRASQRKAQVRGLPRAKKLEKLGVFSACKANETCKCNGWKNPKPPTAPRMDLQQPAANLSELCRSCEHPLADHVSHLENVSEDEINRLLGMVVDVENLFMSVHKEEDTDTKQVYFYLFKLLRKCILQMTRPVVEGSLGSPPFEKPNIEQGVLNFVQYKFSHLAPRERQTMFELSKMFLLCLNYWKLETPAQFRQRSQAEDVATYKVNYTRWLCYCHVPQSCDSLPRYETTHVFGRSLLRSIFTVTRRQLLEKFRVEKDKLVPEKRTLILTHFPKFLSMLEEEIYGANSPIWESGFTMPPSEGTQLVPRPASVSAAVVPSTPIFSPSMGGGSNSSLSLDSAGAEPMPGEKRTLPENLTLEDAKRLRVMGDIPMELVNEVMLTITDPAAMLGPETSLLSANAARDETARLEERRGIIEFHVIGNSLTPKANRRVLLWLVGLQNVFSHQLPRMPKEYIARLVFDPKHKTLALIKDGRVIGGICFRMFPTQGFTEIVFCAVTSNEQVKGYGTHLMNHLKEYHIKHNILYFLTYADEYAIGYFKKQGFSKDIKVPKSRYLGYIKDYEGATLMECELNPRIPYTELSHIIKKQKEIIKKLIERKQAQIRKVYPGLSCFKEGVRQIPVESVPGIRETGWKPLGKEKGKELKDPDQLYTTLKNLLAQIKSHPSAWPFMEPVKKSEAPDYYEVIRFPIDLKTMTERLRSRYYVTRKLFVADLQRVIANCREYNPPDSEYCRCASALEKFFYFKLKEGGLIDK
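Free CoA generated was detected with ThioGlo1 (50uM) fluorescence at Ex340nm/Em540nm, read immediately and after 20 min at room temperature. Enzyme, 20 nM in HEPES pH 7.5 buffer, saw compounds 15 min before adding 75uM H3(1-25) peptide and 70uM acetyl-CoA.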
DT40 TDP1 CPT: growth inhibition of DT40 Tdp1-/-;hTDP1 cells with camptothecin (screen for TDP1 inhibitors) | Potency, µM (top dose mostly 46.2 µM), inactives show top-dose activity change, negative = growth inhibition, usual class: inhibitors | actives 12% (n = 420,000) | chicken DT40 Tdp1-/-;hTDP1 cells + 20 nM CPT, ATP luminescence, 48 h; also: nearly all actives have a fitted effect of over 55% in size
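Chicken DT40 Tdp1-/- cells stably complemented with human TDP1 were seeded at 400 cells/well in medium containing 20 nM camptothecin, exposed to pin-transferred compounds, and grown at 37 °C for at least 48 hr. Viability was read as ATP luminescence.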
Numbers without * were called inactive; ? = inconclusive; . = no result given; & = joins results of further samples. Calls follow the shape of the dose curve; as a rule, active = well fitted curve in the direction sought with a large enough effect; inconclusive = small, poorly fitted or top-dose-only effect, or another doubt; inactive = no such curve, though single readings can be large; an effect the other way counts as inactive or inconclusive. % is scaled to controls: 0 for no effect and ±100 for the full control effect; potency is read from the fitted curve at half-maximal effect. This is a subset; most or all hits stand in other tables.

SMILES | GCN5L2 inh | DT40 TDP1 CPT
CC1Oc2ccccc2C=C1/C=N/NC(=O)c1ccccc1O (stereo unspecified) | -9.4% | ?
CCOc1ccc2c(c1)/C(=C(\C(Cl)=C(Cl)Cl)[N+](=O)[O-])N2 | -5.5% | ?
COC(=O)CC1C(=O)NCCN1C(=O)c1ccc(Cl)cc1 (stereo unspecified) | -1.9% | -0.7%
CC(Sc1ncc(C(F)(F)F)cc1Cl)C(=O)NCC1CCCO1 (stereo unspecified) | -2.2% | 0.7%
CCOC(=O)c1[nH]c(CSc2nnnn2-c2ccccc2C)c(C(=O)OCC)c1C | -3.6% | -18.1%
CCN(C[C@H]1N[C@@](Cc2ccccc2)(C(=O)OC)[C@H]2C(=O)N(Cc3ccccc3)C(=O)[C@@H]12)C(=O)C1CCCCC1 | -8.4% | ?
O=C(CC1NC2CCCCC2NC1=O)Nc1ccc2c(c1)OCO2 (stereo unspecified) | -27.3% | -6.5%
CCOC(=O)C1CCCN(C(=O)c2ccc3c(=O)n(CCOC)c(=S)[nH]c3c2)C1 (stereo unspecified) | -4.2% | ?
O=C(O)CC1(CC(=O)Nc2cc(C(F)(F)F)cc(C(F)(F)F)c2)CCCCC1 | -2.3% | -8.2%
COc1ccc(C(=O)COC(=O)[C@H](C)Nc2ccc(C(F)(F)F)cc2[N+](=O)[O-])c(OC)c1 | -11.0% | -5.0%
CCOC(=O)c1c(-c2ccccc2)c(C(C)=O)c(=O)n(C)c1C | -2.2% | 3.7%
O=S(=O)(c1ccc(C(F)(F)F)cc1)N1CCN(CCOc2ccccc2)CC1 | -10.2% | -14.3%
O=C(Nc1cccc2ccccc12)C1CCN(C(=O)NCc2ccccc2)CC1 | -14.1% | -23.4%
Cc1cc(C)c(C)c(S(=O)(=O)N2CCC(C(=O)OCC(=O)NC3CCS(=O)(=O)C3)CC2)c1C (stereo unspecified) | -2.3% | -4.5%
CN(C(=O)CSc1nnc(-c2cccs2)o1)C1CCS(=O)(=O)C1 (stereo unspecified) | -1.8% | 8.0%
N=c1c2c(ncn1CCCO)Oc1cc(O)ccc1C2c1ccccc1 (stereo unspecified) | -4.8% | -13.3%
COc1ccc(-c2cn3c(C)c(C(=O)NC(C)C)sc3n2)cc1 | -0.5% | -1.9%
CCCCOc1ccc(/C=c2\sc3ncnn3c2=O)cc1 | 0.2% | -13.5%
CC(C)N1CCN(Cc2cnc(N3CCCC3)s2)CC1CCO (stereo unspecified) | -2.0% | 8.5%
Cc1cccc(C)c1OCc1n[nH]c(=S)n1-c1ccccc1 | 3.2% | ?
CCOC(=O)c1c(C)[nH]c(C)c1C(=O)CSc1nnnn1-c1ccccc1 | 0.0% | 2.0%
C=CCn1c(SCC(=O)c2c(N)n(C3CC3)c(=O)[nH]c2=O)nnc1-c1ccccc1OC | -0.1% | 8.5%
N#Cc1c(N)nc(-c2ccccc2)nc1-c1ccccc1 | -14.9% | -3.2%
CCCc1nc2oc3ccccc3c(=O)c2c(=O)n1-c1ccc(C)cc1 | -3.6% | ?
O=C(CN1CCN(c2ccccn2)CC1)Nc1ccccc1C(=O)Nc1ccccc1 | -16.1% | ?
CCc1ccccc1NC(=O)c1ccc(-c2csc(C)n2)cc1 | 0.0% | -7.0%
CCOCCCn1cnc2c(c1=O)c1nc3ccccc3nc1n2-c1ccc(C)cc1 | 4.6% | -23.3%
O=C(NC(=O)N1CCN(c2ccc([N+](=O)[O-])cn2)CC1)c1c(Cl)cccc1Cl | 8.8% | 9.2µM*
Cc1cccc(C(C(=O)NC2CCCCC2)N(Cc2cccnc2)C(=O)c2csnn2)c1 (stereo unspecified) | -2.9% | -3.0%
CCOC(=O)c1nn(-c2ccc(F)cc2)c(=O)cc1OCC(=O)N1CCN(c2ccccc2)CC1 | -3.4% | ?
Cc1onc(-c2c(F)cccc2Cl)c1C(=O)OCC(=O)NC1CC1 | -1.2% | -1.9%
Cc1ccc(NC(=O)CSc2nnc(-c3cnccn3)n2Cc2ccco2)cc1C | ? | -1.8%
Cc1ccccc1NS(=O)(=O)c1ccc2oc(=O)ccc2c1 | -2.8% | -25.3%
CCOC(=O)c1oc2ccccc2c1NC(=O)c1ccc(S(=O)(=O)N(C)C)cc1 | 1.3% | -9.0%
COC(=O)c1ccc(NC(=S)NCc2ccco2)cc1 | -8.8% | -3.8%
O=C(c1sccc1Cl)N1CCN(Cc2ccc3c(c2)OCO3)CC1 | 0.8% | 3.3%
O=C(c1cc2nc(-c3ccc(F)cc3)cc(C(F)(F)F)n2n1)N1CCCCC1c1cccnc1 (stereo unspecified) | -10.0% | 13µM*
O=C(NNC(=O)c1ccco1)c1csc(N2CCOCC2)n1 | -6.0% | 0.7%
CCn1cc(C(=O)O)c(=O)c2cc(Br)ccc21 | -10.5% | -23.1%
O=S1(=O)CCOC[C@H](CC2CCCCC2)N1Cc1ccc(F)cc1 | -6.3% | 2.51µM*
CCn1c(-c2ccccn2)nc2cc(S(=O)(=O)N(C)C)ccc21 | -1.4% | -1.9%
COc1ccc(OC)c(C2C/C(=N/O)C(C)C(c3cc(OC)ccc3OC)N2)c1 (stereo unspecified) | . | 3.0%
NS(=O)(=O)c1ccc(CCNC(=O)c2cnc(Cl)c(Cl)c2)cc1 | 0.8% | -12.8%
COc1ccc(C(=O)NCCc2c[nH]c3ccccc23)cc1S(=O)(=O)N1CCCCC1C (stereo unspecified) | -4.2% | ?
O=C(NC1CC(=O)N(c2cccc(F)c2)C1)c1cccs1 (stereo unspecified) | -0.1% | -29.7%
CCc1nonc1NC(=O)COc1cc(C)c(Cl)c(C)c1 | -9.4% | -8.5%
COc1ccc(NC(=O)c2cc(S(=O)(=O)N3CCOCC3)cs2)cc1 | -2.8% | -6.6%
O=C(c1ccc(S(=O)(=O)Nc2ccccc2F)cc1)N1CCCCCC1 | 1.0% | -0.6%
Cn1c2c(c(=O)n(C)c1=O)CN(Cc1ccc3c(c1)OCO3)CN2 | -0.5% | 10.3%
Cc1cccc(NS(=O)(=O)c2ccc(C)c(C(=O)NCc3ccccn3)c2)c1 | -4.6% | -23.0%
Remaining list, next part.
SMILES | GCN5L2 inh | DT40 TDP1 CPT
CCSc1nc2sc3c(c2c(=O)n1-c1ccc(OC)cc1)CCN(C)C3 | -17.0% | ?
CCCn1c(N)cc(=O)n(CCC)c1=O | -16.2% | -12.8%
O=C1CN(C(=O)CN2CCOCC2)C(c2ccccc2)c2cc(Br)ccc2N1 (stereo unspecified) | -11.4% | 2.1%
COc1ccccc1N1CCN(C2CCN(S(=O)(=O)c3ccc4ccccc4c3)CC2)CC1 | 0.6% | ?
CN(C)CCC(c1ccccc1)c1ccccn1 (stereo unspecified) | 2.7%&-5.7%&3.3%&-14.8%&-2.0% | -11.7%&5.0%&4.5%&11.2%&-0.2%
c1ccc(-c2nnc(Cn3c4ccccc4c4nc5ccccc5nc43)o2)cc1 | . | -18.5%
Cc1ccc(NC(=O)COc2ccccc2)cc1S(=O)(=O)N1CCCCCC1 | -8.4% | ?
CCNc1c(NS(=O)(=O)c2ccc([N+](=O)[O-])cc2)c(=O)oc2ccccc12 | -11.0% | ?
CCOc1cc(/C=N/N2C(=O)NC3(CCCCC3)C2=O)cc(Br)c1O | -0.1% | 0.7%
CC(=O)c1nn(-c2cccc(Cl)c2)cc1C(=O)c1ccco1 | -0.7% | -5.9%
CC(c1ccccc1)N1C(=O)c2ccccc2C1O (stereo unspecified) | 0.0% | -0.8%
O=C(CNCc1ccccc1)NCCCN1CCCC1=O | 1.6% | 6.4%
CCN(CC)C(=O)[C@H]1C[C@H](CC(=O)NCc2cccc(C(F)(F)F)c2)C(=O)N2CCc3c([nH]c4cc(CCC(=O)N(C)C)ccc34)[C@]12C | 0.8% | ?
CCNc1nc(NCC)nc(SCCOC(=O)c2ccccc2)n1 | 2.6% | -21.2%
CCC(=O)N1N=C(c2cccc(NS(C)(=O)=O)c2)CC1c1cccs1 (stereo unspecified) | -0.4% | ?
COc1ccc(-c2nn(-c3ccccc3)cc2C(=O)N(C)CC(=O)Nc2cccc(F)c2)cc1 | -16.1% | ?
CC(CC(=O)N(C)CC(=O)Nc1ccc(N2CCOCC2)cc1)c1ccccc1 (stereo unspecified) | -10.8% | 11.7%
O=C(COC(=O)/C=C/c1cccc(F)c1)Nc1ccc(Cl)cn1 | -0.4% | 21.6%
COc1ccccc1C(=O)Oc1cc(N)n(S(=O)(=O)c2ccccc2)n1 | -3.9% | -3.6%
COc1ccc(-c2noc(CCC(=O)N3CCN(c4cccc(OC)c4)CC3)n2)cc1 | -2.5% | ?
CCOC(=O)c1ccccc1N1C(=O)CSC1=S | -3.6% | ?
CCN(CC)C(=O)c1cccc(NC(=O)CC23CC4CC(CC(C4)C2)C3)c1 | -7.1% | ?
CCCCNC(=O)NC1(C(F)(F)F)Oc2ccccc2O1 | -1.2% | -21.7%
CCn1c(=O)c(C(=O)NCc2ccccc2)c(O)c2ccccc21 | 0.6% | -19.8%
NS(=O)(=O)OCCCc1ccccc1 | -0.6% | ?
Cc1ccsc1/C=C1\SC(=S)N(CC2CCCO2)C1=O (stereo unspecified) | -5.3% | 9.4%
Cn1ncc2c(N3CCC(Cc4ccccc4)CC3)ncnc21 | -1.1% | ?
COc1ccc(CCC(N)=O)cc1OC | 1.0% | -2.3%
Cn1cc(CC(=O)NCCCN2CCCC2=O)c2ccccc21 | -3.6% | 1.7%
Cc1ccc(S(=O)(=O)Oc2ccccc2/C=N/Nc2ccc(C(=O)O)cc2)cc1 | 1.8% | -28.7%
O=C1C=C(c2cccs2)CC(c2cccs2)C1n1cnc([N+](=O)[O-])c1 (stereo unspecified) | -8.4% | ?
O=C(Nc1ccccc1)c1ccc(CSc2ncccn2)cc1 | -18.1% | -15.5%
COC(=O)c1cn(C(=O)c2ccc(C)cc2C)c2ccccc12 | -20.0% | ?
CC(C)CC1Nc2ncnc(N3CCOCC3)c2N(Cc2ccc(Br)cc2)C1=O (stereo unspecified) | -4.2% | ?
O=C(Cc1ccccc1)Nc1ccccc1N1CCCC1 | -10.6% | ?
COc1ccc(Cl)cc1S(=O)(=O)N1CCN(CC(=O)Nc2ccccc2C(F)(F)F)CC1 | 0.9% | ?
Cc1ccc(Cl)c(OCC(=O)NCC(c2cccs2)N2CCOCC2)c1 (stereo unspecified) | -6.2% | 25.9µM*
COc1ccc(CC(NC(=O)c2ccccc2)C(=O)NCC(=O)O)cc1 (stereo unspecified) | -5.0% | 5.5%
COc1ccc(Cl)cc1NC(=O)CN(C)C(=O)c1ccc2c(c1)OCCO2 | -13.6% | -25.3%
COc1ccc(CN2CCN(C(=O)c3ccc(S(=O)(=O)N4CCCCCC4)cc3)CC2)cc1 | -4.7% | ?
Cc1ccc([N+](=O)[O-])cc1NC(=O)c1ccc(C(C)(C)C)cc1 | -9.9% | ?
CS(=O)(=O)c1cccc(-c2nnc(NC(=O)CCS(=O)(=O)c3ccccc3)o2)c1 | -11.0% | 9.8%
CSc1ccc(CCNS(=O)(=O)c2cc(-c3cc(C)no3)ccc2C)cc1 | 6.1% | ?
COc1ccc(-c2nnc(SCc3cc(C)cc(C)c3)o2)cc1 | -4.8% | ?
CSc1ccccc1OCc1cc(C(=O)N(C)C(C)c2nc(C)cs2)no1 (stereo unspecified) | -1.7% | ?
COc1cccc(NC(=O)COC(=O)c2ccc(F)cc2F)c1 | -1.0% | -7.3%
CSc1ccc(CCNC(=O)c2ccc3c(c2)nc2n3CCCCC2)cc1 | 5.3% | -61.6%
Nc1cc(N2CCCC2)c(Cl)cc1[N+](=O)[O-] | -10.7% | -12.9%
COC(=O)Nc1c(C(=O)OC)cc(OC)c(OC)c1OC | -2.6% | 1.4%
COCCNC(=O)c1onc(CSc2ccccc2C)c1C(=O)O | 0.8% | -11.5%
Next section.
SMILES | GCN5L2 inh | DT40 TDP1 CPT
CC(=O)Nc1ccc(N(C(=O)CNC(=O)c2ccco2)C(C(=O)NCC2CCCO2)c2ccccc2)cc1 (stereo unspecified) | 6.9% | ?
CCOC(=O)N1CCN(S(=O)(=O)N2CCCC(C(=O)NCCCN3CCCCC3)C2)CC1 (stereo unspecified) | -5.2% | -7.3%
CC(=O)Nc1cccc(NC(=O)CSc2nc(=O)n(CCCN3CCOCC3)c3c2CCC3)c1 | -2.5% | -12.9%
O=C(Cc1cscn1)c1ccc(O)cc1O | -3.4% | 1.6%
